Autofluor counter: counter-screen for toxin protease inhibitors: compound fluorescence; hit rate 3.1% among 360,000; AID 624483; fluorescence intensity (test concentration not listed); compound autofluorescence counterscreen, microsphere flow cytometry; active compounds read high;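 active means at least 3 SD above the mean of all compounds, about 16000 in these data; inconclusive means too few beads counted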;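 further: 100 nL of 1 mM stock went into each well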
Sa ugtP lethal: growth inhibition of ugtP-null S. aureus, primary screen, RN4220 ugtP deletion, OD600; 16 h; some inactives read as strong as hits; growth inhibition, % (test concentration not listed); hit rate 0.54% among 330,000; AID 1259309, 2017;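 active means z-score under -3 and OD600 up to 0.15 on both plates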;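 further: plate controls were untreated wells for no effect and antibiotic for full effect; wells of about 80 µL received 100 nL stock; the first replicate is given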
Mtb hypoxia inh: PubChem AID 1159583; M. tuberculosis hypoxia-regulated fluorescent reporter, fluorescence; fluorescence inhibition, % (concentration not given with the values); hit rate 0.1% among 300,000;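 active means 35 to 45% if threefold the growth effect, above 45% if 1.5-fold the growth effect; inactive means the rest, general growth blockers included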;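 further: wells of about 50 µL received 100 nL stock; 0% = vehicle wells and 100% = reference inhibitor wells; whole bacteria with a GFP reporter of the hypoxia response; strong numbers were not always called active; many hits fall short of the cut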
PrP 5UTR inh: inhibition of PrP 5' UTR reporter expression; cell-based PrP 5' UTR mRNA reporter, plate reader; inhibition, % (no concentration beside the values); hit rate 0.35% among 340,000; AID 488862, 2010;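 active means every replicate at 50% or more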;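 further: 0 = median of the neutral control wells; tested in H4 reporter cells; numbers are from one replicate; inactives centre near -14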
Sa RN4220 lethal: growth inhibition of S. aureus RN4220, primary screen, OD600. 16 h. inhibition, % (concentration not given with the values). hit rate 0.33% among 330,000. AID 1259311, 2017;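 active means z-score of -3 or lower and OD600 up to 0.18 on both plates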;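 further: plate controls were untreated cells for no effect and reference antibiotic for full effect; stock transfer was 100 nL into about 80 µL; one replicate is shown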
BJeLR viability: MLPCN primary cell-based screen for lethality selective to Ras in HRASV12 cells; hit rate 0.17% among 300,000; AID 1554, 2009; BJeLR (HRASV12) viability, CellTiter-Glo ATP luminescence, 48 h; reference of the scale not given here; inhibition, % (test concentration not listed);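 active means replicate mean above 50%; inconclusive means above 50% but judged a plate artefact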;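 further: 50 nL library stock added to about 25 µL; numbers are from one replicate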
Mtb hypoxia inh growth: recorded beside Mtb hypoxia inh, whose call it bears; growth inhibition, %; measured here: M. tuberculosis growth (absorbance);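 0% = vehicle and 100% = reference antibiotic; read after six days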
Numbers without * were called inactive; ? = inconclusive; nt = not tested or not shown; & = joins results of further samples.

structure	Autofluor counter	Sa ugtP lethal	Mtb hypoxia inh	Mtb hypoxia inh growth	PrP 5UTR inh	Sa RN4220 lethal	BJeLR viability
O=C(CC1CC=CCC(Cc2ccc(F)cc2)C(=O)OCC2CCCN2C1=O)NCCO (stereo not given)	nt	1&7&-2	10&18&7	3&5&14	nt	6.8&6.1&5.9	nt
CC(Oc1ccc(-n2cnnn2)cc1)C(=O)O (stereo not given)	2186	8	6	3	-33	7.5	-10
CC(C)c1ccc(C=c2sc3nc(-c4ccncc4)nn3c2=O)cc1	nt	-4	2	11	nt	1.3	nt
CCCNc1c(NS(=O)(=O)c2c(F)c(F)c(F)c(F)c2F)c(=O)oc2ccccc12	4601	-1	-7	0	-20	8.5	-7
O=C(Nc1ccc2c(c1)CCC2)C1CCN(c2c3c(nc4ncnn24)CCC3)CC1	9608	0	2	1	-2	-0.2	-4
COc1cccc(-c2nc(CS(=O)(=O)CC(=O)N3CCN(C4CCCCC4)CC3)c(C)o2)c1	5839	-6	-1	7	-26	-4.6	1
CC(C)c1ccc(C(=O)Nc2cccnc2)cc1	3025	4	3	-14	-58	2.5	5
Cc1cccc(/C=N/NC(=O)c2cc3c(s2)-c2ccccc2CC3)c1	4277	nt	nt	nt	-32	nt	-4
CC(C)(C)c1cc(C(=O)O)c(CN2CCCCC2)o1	3407	3	nt	nt	0	5.0	-2
CCCn1c2ccccc2c2cnn(CC(=O)N3CCOCC3)c(=O)c21	5429	5	0	-9	-10	4.5	0
Clc1ccc2c(c1)C(OC1CN3CCC1CC3)c1ccccc1CS2 (stereo not given)	10854	2	12	6	-26	-7.8	-11
Cc1cc(=O)n(C)c(=O)n1CCCCCCOc1cccc([N+](=O)[O-])c1	2527	-13	7	5	-72	2.3	0
O=C1CN(c2nc(-c3ccccc3)c3cc(Cl)ccc3n2)c2ccccc2N1	10886	nt	nt	nt	6	nt	16
Cc1ccc(CCNC(=O)C2CCN(S(=O)(=O)N3CCOCC3)CC2)cc1	4770	17	-2	5	-20	5.6	-5
Cn1c(=O)oc2cc(S(=O)(=O)NCc3ccccc3)ccc21	9133	7	10	9	-10	4.5	1
O=C(O)CCCC(=O)Nc1nc(-c2ccc(F)cc2)cs1	3088	8	5	7	-5	5.3	-7
CCc1nnc(NC(=O)C(C)Sc2ccccc2)s1 (stereo not given)	6279	-7	2	5	-6	4.0	0
OCCC1CN(Cc2ccc(Oc3ncccn3)cc2)CCN1C1CCCC1 (stereo not given)	2054	0	-1	-3	7	-2.8	14
CC(=NNS(=O)(=O)c1ccc(C)cc1)c1ccc2c(c1)OCO2	nt	3	-10	0	nt	-3.1	nt
CSc1nnc2c(n1)OC=Nc1ccc(Br)cc1-2	3301	15	8	-1	2	4.6	4

Reprinted from the part before: two compounds, followed by the next part.
structure	Autofluor counter	Sa ugtP lethal	Mtb hypoxia inh	Mtb hypoxia inh growth	PrP 5UTR inh	Sa RN4220 lethal	BJeLR viability
CC(=NNS(=O)(=O)c1ccc(C)cc1)c1ccc2c(c1)OCO2	nt	3	-10	0	nt	-3.1	nt
CSc1nnc2c(n1)OC=Nc1ccc(Br)cc1-2	3301	15	8	-1	2	4.6	4
CC(C)N(C(=O)[C@H]1C[C@H](CC(=O)NCc2ccco2)C(=O)N2CCc3c([nH]c4cc(CCC(=O)N(C)C)ccc34)[C@]12C)C(C)C	3928	5	0	2	-7	0.8	nt
Cc1ccc(NC(=O)n2ccc(-c3ccc(-n4ccnc4)cc3)n2)cc1	4498	8	6	2	-45	12	nt
CCOC(=O)c1csc(-c2snnc2C)n1	5521	1	-2	2	-17	0.1	-11
COC(=O)c1cccc(NC(=O)Cn2nnc3ccccc32)c1	6397	-3	0	2	-14	-0.6	0
C=CCNc1nc(C(=O)OCC(=O)Nc2ccc(S(N)(=O)=O)cc2)cs1	6096	1	5	15	-12	-0.5	4
Cc1ccc(S(=O)(=O)C(C#N)c2nc3ccccc3nc2N2CCC(C)CC2)cc1 (stereo not given)	4085	-5	nt	nt	-26	5.3	9
COc1ccc(OCC(=O)N2CCN(Cc3ccc(SC)cc3)CC2)cc1	4173	4	10	12	-6	4.7	-2
O=C(COC(=O)c1ccccc1F)Nc1ccc2c(c1)OCCO2	?	10	8	-3	-27	0.4	nt
CSc1ncc2c(n1)-c1cc(C)ccc1SC2	4658	3	nt	nt	3	5.0	-1
CC(=O)c1c(N2CCN(Cc3ccccc3)CC2)nc(=S)n(-c2ccccc2)c1C	4468	4	-6	9	-32	1.4	2
Cc1cc(-n2c(SCCC#N)nnc2-c2cccnc2)ccc1Cl	9961	-9	1	3	-23	2.0	-3
COc1ccc(/C=C(\C#N)C(=O)OCC(=O)NC2CC2)cc1	3482	5	12	12	-14	-1.3	-9
c1ccc(Cn2c(CN3CCCC3)nc3ccccc32)cc1	6747	0	15	11	-19	4.6	0
Cc1ccc(CNC(=O)c2ccc(N3CCC4(CC3)CC(c3cccc(Br)c3)=NO4)c(NC(=O)c3ccc(Cl)c([N+](=O)[O-])c3)c2)cc1	4052	0	11	9	-10	3.1	nt
Cc1nn2c(C(F)(F)F)c3c(nc2c1-c1ccccc1)CCC3	2469	12	1	9	-1	5.3	-3
O=C(NNS(=O)(=O)c1ccccc1[N+](=O)[O-])c1cccc(Cl)c1	2016	-3	2	-1	-22	18	-12
Cc1ccc(C(=O)Nc2ccc(C(=O)N/N=C/c3ccc(C)o3)cc2)cc1	3787	nt	nt	nt	-25	nt	-7
C=CCn1c(SCc2cc(=O)n3ccsc3n2)nnc1C1CCCCC1	5449	-4	0	-2	-27	4.1	-16
CCCCN(C(=O)c1cccc(-n2cnnn2)c1)c1c(N)n(CC(C)C)c(=O)[nH]c1=O	6200	7	2	2	-17	4.4	nt
OC1=C(O)c2nc3ccccc3nc21	10717	13	-3	-1	nt	6.3	-2
CC1=C(C(=O)Nc2ccc(Cl)cc2)C2(CCCCC2)C(C(N)=O)C(=S)N1 (stereo not given)	nt	10	-5	-5	nt	6.7	-7
COC(=O)CC1c2ccccc2S(=O)(=O)N1c1cccc(OC)c1 (stereo not given)	nt	8	17	12	nt	8.7	nt
Cc1cc(C)n(-c2nc3ccccc3c(=O)n2OCCOc2ccccc2)n1	2651	-8	nt	nt	-12	0.2	8
Cn1nnnc1SCC(=O)Nc1ccc(Br)cc1Br	?	5	1	-1	-32	4.2	nt
CC(=O)c1c(C)[nH]c(C(=O)OCc2cccc(C)c2)c1C	5170	-2	6	2	-70	3.8	-5
CCOC(=O)Cc1csc(NC(=O)Nc2cccs2)n1	4218	0	3	7	nt	2.5	2
COc1ccc(S(=O)(=O)N2CCC(C(=O)NC3CC3)CC2)cc1	5518	8	5	2	-11	3.4	0
Cc1ccccc1C(=O)NC1CC2CCC(C1)N2Cc1ccccc1 (stereo not given)	3771	0	3	-2	-29	4.9	1
COc1cccc(/C=N/N2CCN(c3ccc(Cl)cc3)CC2)c1OC	3927	nt	nt	nt	-23	nt	6
COCCN(C(=O)CCC(=O)Nc1nccs1)C(C(=O)NCCC(C)C)c1ccc(F)cc1 (stereo not given)	5773	6	5	-2	-17	6.4	-6
COc1cc(CNC(=O)OCC(C)C)cc(OC)c1OC	3111	-3	9	19	-10	-2.6	-3
Cc1ccc(S(=O)(=O)NCC(=O)OCC(=O)N(C)C2CCS(=O)(=O)C2)cc1 (stereo not given)	6238	5	1	15	-3	1.6	0
Cc1c(Cl)cccc1Nc1nc(NCCO)c2ccccc2n1	4026	-7	-6	-1	-7	8.1	23
CS(=O)(=O)N1CCCC(C(=O)NCCc2ccccc2)C1 (stereo not given)	12384	-1	1	7	-32	-2.1	2
c1coc(CNCCCN2CCOCC2)c1	10293	1	3	12	nt	0.2	-6
O=C1N/C(=C/c2cccn2-c2ccccc2)C(=O)N1c1cccc(Cl)c1	11242	43	3	-5	-12	2.5	-6
CN(C)S(=O)(=O)N1CCN(C(=O)N(c2ccccc2)c2ccccc2)CC1	5263	1	-3	-9	-20	-2.3	3
COc1ccc2c(c1)CCc1c(C(=O)N3CCCC3)noc1-2	21115*	3	5	7	-48	2.0	-10
CC(C)NC(=O)CCn1c(=S)oc2ccccc21	2595	4	9	6	-36	1.8	-8
Cc1ccc(Oc2nsnc2N2CCOCC2)cc1	20142*	-6	9	11	-28	7.1	-1
CC(=O)Nc1ccc(S(=O)(=O)Oc2ccc(Br)cc2C(=S)N2CCOCC2)cc1	nt	-10	-3	-24	-11	2.9	-4
COCc1c(C(N)=O)nnn1-c1nonc1N	8755	-1	-1	2	-7	0.8	-2
Cn1c(SCC(=O)NCc2ccc3c(c2)OCO3)nc2c(c1=O)SCC2	6304	-1	7	-4	3	-0.7	-3
O=C(Cc1ccc(Cl)cc1)Nc1ccccc1Sc1ccccc1	7415	-2	19	6	-24	-2.7	-9
CCOc1ccc(OC(=O)c2ccc3c(=O)n4c(nc3c2)CCC4)cc1	?	1	12	4	-10	6.6	6
CCn1c(SCC(=O)Nc2ccccc2-c2ccccc2)nnc1-c1ccoc1C	3830	-10	-8	5	-16	-6.5	-1
O=C(Nc1ncnc2sc3c(c12)CCCCC3)c1ccc(F)cc1	4268	-13	-5	2	-17	-2.8	12
O=C(NCC1CCCO1)C(c1ccncc1)N(Cc1cccs1)C(=O)CN1C(=O)c2ccccc2S1(=O)=O (stereo not given)	4839	-1	-7	-13	-10	1.6	2
CCNC(=O)COC(=O)c1ccc(S(=O)(=O)N2CCCCCC2)cc1	4160	10	11	2	-14	0.4	0
CC(C(=O)N1CCN(c2ccccc2F)CC1)c1ccc([N+](=O)[O-])cc1 (stereo not given)	3385	4	4	2	9	0.9	-6
O=C(CSc1nc2[nH]c(=O)cc(O)c2s1)Nc1ccc(Cl)c(C(F)(F)F)c1	4827	-4	8	6	nt	7.9	nt
CC(C)OC(=O)CSc1nnc(-c2cccnc2)n1N	2883	19	nt	nt	-39	11	6
Cc1ccc(NS(=O)(=O)c2cc(C(=O)O)ccc2Cl)c(C)c1	9281	-1	1	2	-12	4.4	16
COc1cc(-c2nn3c(-c4ccccc4)nnc3s2)cc(OC)c1OC	nt	-4	6	16	-5	-0.6	nt
CC(C)Cc1cc(C(=O)Nc2c(F)cc(F)cc2Br)no1	5780	13	5	12	-17	-3.5	2
S=c1[nH]ccn1-c1cccc(Cl)c1Cl	4622	5	7	1	-26	0.5	-2
O=C(OCCN1CCN(C2=NS(=O)(=O)c3ccccc32)CC1)c1ccccc1F	5855	-2	0	2	-20	1.9	11
CN(C(=O)CSc1nnc(-c2ccncc2)n1-c1ccccc1)C1CCS(=O)(=O)C1 (stereo not given)	5905	3	14	9	-19	2.5	0
O=C(Nc1ccc2c(c1)Cc1ccccc1-2)c1cccnc1	5106	-6	0	1	-49	-9.4	2
O=C(Nc1ccccc1)ON=Cc1ccc(F)cc1	nt	3	8	-9	nt	3.3	nt

Following part
structure	Autofluor counter	Sa ugtP lethal	Mtb hypoxia inh	Mtb hypoxia inh growth	PrP 5UTR inh	Sa RN4220 lethal	BJeLR viability
O=C(NCCCO)c1cc2c([nH]c3ccccc32)c(-c2ccccc2)n1	3959	3	0	8	nt	1.6	2
Cc1ccccc1Cn1c(=O)[nH]c2ccccc21	5719	7	5	4	2	2.3	-3
CCOc1ccc(S(=O)(=O)Nc2cccc(Cl)c2)cc1	10260	-5	1	-9	-41	17	-4
Cc1cc(NC(=O)CCC(=O)N(Cc2cccs2)C(C(=O)NC2CCCC2)c2cccnc2)no1 (stereo not given)	3204	-2	7	11	-9	-2.5	-6
CN(Cc1ccccc1)c1ncc(C=O)s1	4273	1	11	6	-6	-1.2	17
CC(C)NC(=O)CC(=O)NN=Cc1ccccc1C(=O)O	nt	5	3	0	nt	9.5	nt
N#Cc1cccc(NC(=O)CNC(=O)Cc2ccccc2)c1	3183	-1	14	-4	-7	3.8	-1
Cc1c(C(=O)O)[nH]c2ccc([N+](=O)[O-])cc12	3672	6	2	1	-26	2.0	nt
Cc1ccc(S(=O)(=O)NCC(=O)N2CCOCCOCCOCCOCC2)cc1	3174	nt	nt	nt	-17	nt	-9

Source: PubChem
